Ab BasE inh – BasE siderophore enzyme inhibitors, primary screen, biochemical, Acinetobacter baumannii ATCC 17978, fluorescence polarization; purified BasE, fluorescence polarization binding displacement; inhibition, % (concentration not given with the values); 84,000 tested, 0.1% active; AID 485350, 2010;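 active = both replicates above 25% with normal brightness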;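 note: 0% = negative plate control signal and 100% = positive plate control signal; stock transfer was 100 nL into about 30 µL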
KSHV LANA nucl – inhibitors of KSHV LANA-nucleosome binding, primary screen, biochemical, fluorescence polarization, FITC-LANA1-23, chicken nucleosomes. FITC-LANA1-23 / chicken nucleosome fluorescence polarization; active compounds read low. z-score (test concentration not listed). 51,000 tested, 0.3% active. AID 720717, 2013;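 active = both repeat wells score below -2 in polarization z-score versus plate sample wells, excluding overly bright wells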;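 note: 100 nL library stock added to about 30 µL; numbers are from one replicate; some results filed as inactive read as strong as hits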
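Test system: purified chicken nucleosomes with FITC-labelled LANA N-terminal peptide (1-23); Input: 240 nM purified chicken nucleosomes (480 nM peptide binding sites), final; Medium: TEN-BT buffer, pH 7.5; Timing: 10–45 min, room temperature; Technique: fluorescence polarization, 480 nm excitation, 535 nm parallel and perpendicular emission; Replication: duplicates.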
Numbers without * were called inactive; · = no result given; & = joins results of further samples; ! = not active in a repeat. Some of the compounds tested; rates above refer to the full screens.

Results follow in this order: Ab BasE inh, KSHV LANA nucl
Cn1c(Cc2cccs2)nnc1SCC(=O)C12CC3CC(CC(C3)C1)C2
 : 0.1, ·
COC(=O)c1ccc(N)cc1
 : 0.0, ·
CCOC(=O)C1=C(C)N(C)C(c2ccccc2)(C(F)(F)F)NC1=O (stereo not given)
 : 1.8, 0.2
COc1cc2c(cc1OC)C1=C(C#N)COCN1CC2
 : 0.9, ·
COc1ccc(S(=O)Cc2ccc(C(=O)NCCN(C)C)o2)cc1 (stereo not given)
 : -1.3, -0.644
O=C(CCCCCN1C(=O)c2ccccc2C1=O)Nc1ccc2c(c1)OCO2
 : -1.6, -0.746
O=S(=O)(c1cccc2cccnc12)N1CCC(n2cccc2)CC1
 : 1.9, -0.924
CN(C(=O)Cn1ncc2c(=O)oc3ccccc3c21)c1ccc(F)cc1
 : 0.7, 1.12
Cc1cc(S(=O)(=O)N2CCN(Cc3noc(CCC(=O)N(C)C4CCCCC4)n3)CC2)ccc1F
 : 2.1, ·
CCCCOC(=O)Cn1c2ccccc2c2nc3ccccc3nc21
 : -1.7, -0.736
O=C(CCCn1ccc2cc(S(=O)(=O)N3CCCC3)ccc21)NCCc1ccccc1
 : -0.6, ·
CCOC(=O)N1CCN(C(=O)CCCCn2c(=S)[nH]c3c([nH]c4ccc(OC)cc43)c2=O)CC1
 : -2.3, 2.4
CCOc1ccc(C2CC(=O)N3CN(CCO)CSC3=C2C#N)cc1 (stereo not given)
 : 0.5, -0.194
O=C(OCC(=O)N(C1CCCCC1)C1CCCCC1)c1ccc(O)cc1
 : -0.4, ·
Cc1cc(C)c(C#N)c(SCC(O)CS(=O)Cc2ccccc2)n1 (stereo not given)
 : -1.2, ·
O=C(CSCCO)N1CCc2ccccc21
 : 0.4, -0.0685
Cc1cc2c(cc1C)NC(c1ccc(O)cc1O)C1=C(CC(C)(C)CC1=O)N2 (stereo not given)
 : 1.7, -0.444
CCCC(=Nc1ccccc1O)C1=C(O)CC(CC(C)SCC)CC1=O (stereo not given)
 : 0.4, -0.404
N#CC(C#N)=CNc1nccs1
 : 0.5, 0.358
CCn1c(C)cc(O)cc1=O
 : -0.4, -0.332
Cc1ccc(Cl)cc1NC(=O)CCC(=O)NCc1ccco1
 : -2.2, 0.368
Cc1ccccc1Nc1nc(N)nc(CSc2nc3ccccc3c(=O)n2CCCO)n1
 : -3.7, ·
CCOC(=O)c1cc(C(N)=S)c(=O)[nH]c1O
 : -2.8, 2.54
Nc1ncnc(N2CCCc3ccccc32)n1
 : 1.3, -0.948
CN1CCN(C(CNC(=O)NC2CCCCC2)c2ccc(F)cc2)CC1 (stereo not given)
 : 3.5, -0.56
c1csc(-c2nnc(Sc3nc(CN4CCCCC4)nc4sc5c(c34)CCCC5)o2)c1
 : 1.8, ·
O=C(Nc1ccc2c(c1)nc1n2CCCCC1)c1cc2ccccc2o1
 : -6.6, ·
NC(=O)COc1ncnc2scc(-c3ccccc3)c12
 : 0.4, ·
O=c1[nH]c2cc3nc(C(F)(F)C(F)(F)F)[nH]c3cc2[nH]1
 : 2.1, 0.28
CCN(CC)c1ccc(NC(=O)c2ccccc2F)cc1
 : 3.2, -0.667

6 of these compounds, set out differently.
mol	Ab BasE inh	KSHV LANA nucl
Cc1ccccc1Nc1nc(N)nc(CSc2nc3ccccc3c(=O)n2CCCO)n1	-3.7	·
O=c1[nH]c2cc3nc(C(F)(F)C(F)(F)F)[nH]c3cc2[nH]1	2.1	0.28
CCN(CC)c1ccc(NC(=O)c2ccccc2F)cc1	3.2	-0.667
O=C(Nc1ccc2c(c1)nc1n2CCCCC1)c1cc2ccccc2o1	-6.6	·
CCOC(=O)c1cc(C(N)=S)c(=O)[nH]c1O	-2.8	2.54
c1csc(-c2nnc(Sc3nc(CN4CCCCC4)nc4sc5c(c34)CCCC5)o2)c1	1.8	·

Continuation:
Results follow in this order: Ab BasE inh, KSHV LANA nucl
CCN(CC)S(=O)(=O)c1ccc(NC(=O)Cn2ncc3c(=O)oc4ccc(C)cc4c32)cc1
 : -0.3, -0.0785
CCNc1ccc(C(=O)OCC)cc1NC(=O)c1cccc(N(C)C)c1
 : -0.1, ·
CC(C)(C)NC(=O)Nc1ccc2ccccc2c1
 : -2.8, ·
NC(C(=O)O)C(c1ccccc1)C(F)(F)F (stereo not given)
 : -0.2, ·
CC1SC(=S)N(c2ccc(N(C)C)cc2)C1=O (stereo not given)
 : 0.6, ·
Nc1no[n+]([O-])c1-c1ccccc1
 : 3.7, ·
CC(C)(C)N=C1NN=C(c2ccc(Cl)c(Cl)c2)CS1
 : -1.1, ·
COc1ccc(NC(=S)NCCCC2C=NNC2=O)cc1 (stereo not given)
 : 1.8, ·
COc1ccc(Cn2c(C)c(CNCc3cccs3)c(C(=O)O)c2C)cc1
 : 1.9, 0.504
Cc1nnc(SCC(=O)c2ccc3[nH]c(=O)oc3c2)n1Cc1ccccc1
 : -9.5, ·
CC12CC3CC(C)(C1)CC(C(=O)NO)(C3)C2
 : 0.8, -0.287
COc1ccc(N2CCN(C(=O)CNC(C)C3CC4CCC3C4)CC2)cc1 (stereo not given)
 : -6.9, ·
c1ccc(Cn2nnc3c(N4CCCC4)ncnc32)cc1
 : -0.7, -0.103
CCS(=O)(=O)N1CCc2cc(C(=O)CSc3nnc(COc4ccc(F)cc4)o3)ccc21
 : 0.2, ·
O=C(Oc1ccc(O)cc1)C12CC3CC(CC(C3)C1)C2
 : 6.0, 0.314
O=C(c1cccs1)N1CCN(c2ccc(Cl)cc2)CC1
 : 1.7, 0.599
CC12CCC(C/C1=N\OC(=O)O)C2(C)C (stereo not given)
 : -2.2, 1.12
CN1C/C(=N\S(=O)(=O)c2ccccc2)N(C)C1=O
 : -1.5, 0.049
COC(=O)c1cc(S(=O)(=O)Nc2cccc(-c3cnco3)c2)oc1C
 : 5.1, ·
CN1CCN(C(=O)/C=C\C(=O)O)CC1
 : 0.7, 2.41

2 entries from above, field by field.
CCS(=O)(=O)N1CCc2cc(C(=O)CSc3nnc(COc4ccc(F)cc4)o3)ccc21
  Ab BasE inh = 0.2
  KSHV LANA nucl = ·
O=C(Oc1ccc(O)cc1)C12CC3CC(CC(C3)C1)C2
  Ab BasE inh = 6.0
  KSHV LANA nucl = 0.314

The list continues:
Results follow in this order: Ab BasE inh, KSHV LANA nucl
COc1ccccc1Nc1ncc(C(=O)N2CCN(c3ccc(F)cc3)CC2)c2ccccc12
 : 0.5, -0.241
CCOC(=O)c1cccc(NC(=O)CS(=O)(=O)Cc2nc(-c3ccc(C)cc3)oc2C)c1
 : 1.1, 0.45
Cc1cc(C)nc(NNc2ccccc2)n1
 : 0.8, ·
CCOC(=O)CN1C(=O)S/C(=C/c2cc(OC)c(O)cc2Br)C1=O
 : -11.7, 0.79
Cc1ccsc1/C=C1/C(=O)/C(=C/c2sccc2C)C2CCC1N2C
 : 2.7, 0.0695
N#C/C=C(\N)c1ccc(Oc2ccc(Cl)c(F)c2)cc1
 : ·, 0.008
S=c1oc2ccccc2n1CNc1ccccn1
 : 11.1, ·
O=C(C(c1ccccc1)c1ccccc1)N1CCCCC1
 : 1.2, 0.106
COc1ccc(N2C(=O)c3ccccc3NC2c2ccc3c(c2)OCO3)cc1 (stereo not given)
 : 1.6, -0.08
CCc1cccc(NC(=O)CSc2nnc(Cc3ccccc3)n2N)c1
 : -0.9, 2.15
Cn1ccnc1C(=O)c1cc(SCC(=O)Nc2ccc3c(c2)OCO3)nc2ccccc12
 : 0.0, ·
Cc1cccc(N)c1-c1c(C)cccc1N
 : 2.2, 0.211
CCCc1oc(C(=O)O)cc1CN1CCOCC1
 : 1.6, -1.16
O=C(N/N=C/c1ccccc1F)c1ccccc1
 : -1.6, -0.631
CN(C)CC[C@H](c1ccc(Cl)cc1)c1ccccn1
 : -2.7, 0.118&-0.114
COc1ccc(C(=O)Nc2ccc3[nH]ccc3c2)cc1
 : 1.5, ·
CCOC(=O)c1sc(-c2ccc(F)cc2)cc1N
 : 0.6, ·
Cc1cccc(OCCCC(=O)O)c1C
 : 0.9, -0.593
Cc1nc2c(=O)oc3ccccc3c2o1
 : 1.7, -0.614
COc1ccccc1C(C)N (stereo not given)
 : 1.9, 0.667
O=C(NC(=S)N1CCc2ccccc21)C1CCCC1
 : 0.6, -1.27
O=C1N/C(=C/c2ccc(N3CCCC3)cc2)C(=O)N1c1ccccc1
 : 8.4, 1.55
Cc1nnc(C)n1/N=C\c1cccc(OCc2ccccc2)c1
 : -0.3, ·
O=S(=O)(Nc1ccc(C(F)(F)F)cc1)c1cnc[nH]1
 : 0.9, -0.193
CCOc1ccc(S(=O)(=O)N(C)c2ccc(OCC(=O)NCC3CCCO3)cc2)cc1 (stereo not given)
 : 1.6, ·
O=C1C(Oc2ccccc2)C(c2cccs2)N1Cc1ccc2c(c1)OCO2 (stereo not given)
 : 3.1, -1.04
CCCCn1c(CNC=O)nc2ccccc21
 : 1.5, -0.375
NS(=O)(=O)c1ccc(N(C(=O)Cn2nnc3ccccc32)C(C(=O)NC2CCCC2)c2cccs2)cc1 (stereo not given)
 : 1.8, 0.36
OCc1cnn(-c2ccccc2)c1
 : -0.5, ·
NC(=O)C(Cc1ccccc1)N1C(=O)c2ccccc2C1=O (stereo not given)
 : 0.6, ·
C/C(=N\OC(=O)c1cccc(C(F)(F)F)c1)c1csc(-c2ccno2)n1
 : 1.8, -0.372
O=c1c(O)c(-c2ccc(O)c(O)c2)oc2cc(O)cc(O)c12
 : 28.6*!, 0.825&0.321&0.635
CCN1CCN(C(=O)CCC(=O)c2cccs2)CC1
 : -0.1, ·
COC(=O)CCC1(C(=O)O)CCOC(C)(C)C1 (stereo not given)
 : 1.0, -0.266
CCCn1c2ccccc2c2cnn(CC(=O)N(C)c3ccccc3)c(=O)c21
 : 0.8, 1.15
C#CCn1nnc2ccccc21
 : 10.6, -0.047
COC(=O)C(N)CS (stereo not given)
 : -1.7, 0.673
O=S(=O)(Cc1ccc(Cl)cc1)Nc1ccc2c(c1)OCCO2
 : 2.1, -0.867
Cn1c(=O)n(Cc2ccccc2)c(=O)c2c1nc1n2CCCN1c1cccc(Cl)c1
 : 0.2, -0.503
COC(=O)c1cc(S(=O)(=O)NCCc2ccccc2)c[nH]1
 : -1.2, -1.56
O=S(=O)(c1ccccc1)N1CCN(Cc2ccccc2)CC1
 : 4.2, -0.738
O=C(Oc1ccccc1-c1nc(-c2ccccc2)no1)c1ccccc1
 : 3.4, -0.118
Cc1nc2ccccc2c(=O)n1CCNc1cccc2ccccc12
 : -3.2, -0.0025
COC(=O)c1ccc2c(=O)[nH]c(COC(=O)c3ccc4c(c3)OCO4)nc2c1
 : -4.3, ·
Cc1csc(N(C(=O)CSc2nc(C3CC3)n(-c3ccccc3)n2)c2ccccc2)n1
 : 0.3, ·
CCn1cc(C(=O)OCC(=O)Nc2ccc(OC)cc2)c(=O)c2ccc(C)nc21
 : 2.5, 0.695
CCOc1ccc(C2Nn3c(nnc3-c3ccccc3)SC2C(=O)N2CCCCC2C)cc1 (stereo not given)
 : -0.8, -0.108
CCOC(=O)c1nc(N2CCc3cc(OC)c(OC)cc3C2C)c2ccccc2n1 (stereo not given)
 : 0.8, -0.531
Oc1[nH]c2ccccc2c1C=NCc1cccc(F)c1
 : 1.6, 1.41
C/C(CCc1ccccc1)=N/NS(C)(=O)=O
 : -2.2, -1.02

Next results.
Results follow in this order: Ab BasE inh, KSHV LANA nucl
CCCCS(=O)(=O)/C=C\C1C2C=CC(C2)C1S(=O)(=O)CCCC (stereo not given)
 : -2.8, 0.448
COc1ccccc1NC(=S)N/N=C/c1cccnc1
 : 2.0, ·
CC1CCCCN1C(=O)c1cc(I)ccc1NC(=O)c1cccnc1 (stereo not given)
 : 0.0, 0.145
CC1(C)CC2CC(C)(CN2C(=O)Cn2nc(C(=O)O)c3ccccc3c2=O)C1 (stereo not given)
 : 0.9, ·
Cc1ccc2cc(CNCc3cccnc3)c(=O)[nH]c2c1
 : -1.8, -0.189
COCCNC(=S)Nc1ccc2nc(N3CCN(C)CC3)cc(C)c2c1
 : 2.4, 0.07
Cc1cccc(-c2cc3nc4c(c(N5CCCC5)n3n2)CCCC4)c1
 : 1.2, -0.263
CCOc1ccc2c(c1)c(=O)c1cccnc1n2CC(=O)Nc1cccc(C)c1C
 : 1.6, ·
Cc1cc(C)c2[nH]c(O)c(N=NC(=S)NCC3CCCO3)c2c1 (stereo not given)
 : 0.9, ·
CCOC(=O)CNc1nc(Cl)nc(Nc2ccccc2)n1
 : 1.8, -0.764
O=C(NO)c1csc(-c2cccnc2)n1
 : -1.7, 0.271
Cn1ccc(-c2ccccc2)n1
 : -0.1, -0.275
O=C(CN1C(=O)S/C(=C\c2ccccc2)C1=O)Nc1nccs1
 : -0.9, 1.33
Cc1ccc(C)n1-c1ccc(C(=O)NNC2=NCCC2)s1
 : 0.2, ·
CCOc1ccc(-n2c(O)c(C=NCCCN3CCOCC3)c3ccccc3c2=O)cc1
 : 0.1, ·
O=C(CCS(=O)(=O)c1ccccc1)Nc1ccc2c(c1)OCCO2
 : 0.6, -0.584
CN(Cc1cccs1)S(=O)(=O)c1ccc2c(c1)OCCO2
 : 0.7, ·
O=C(Cn1c(=O)oc2ccccc21)NCCN1CCc2ccccc2C1
 : 3.5, -0.412
Cc1nc2c3ccccc3[nH]c(=O)n2n1
 : 1.5, ·
Fc1ccccc1/C=C/c1ccncc1
 : 4.8, ·
Cc1cc(SCC(=O)c2ccccc2)nc(=O)[nH]1
 : -3.2, 0.458
CN(C(=O)CSc1nc(-c2ccccc2)cs1)C1CCS(=O)(=O)C1 (stereo not given)
 : -0.5, ·
O=C1OCCC1Sc1nnc(-c2ccccc2)n1-c1ccc(Cl)cc1 (stereo not given)
 : -1.6, ·
C=CCN(CC=C)S(=O)(=O)c1ccc(C(=O)Nc2nnc(-c3cc(C)ccc3C)o2)cc1
 : -0.3, 0.0955
